Assay outcomes deposited in PubChem by several laboratories.
YopH PTP inh: blocks Yersinia enterocolitica YopH tyrosine phosphatase. fluorescence Ex485/Em525. inhibition, %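 (about 10 µM by stock and volumes)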. 140,000 tested, 0.16% active;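 active means inhibition of 50% or more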;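 further: controls were vehicle for no effect and minimum signal wells for full effect; inactives centre near -20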
RecA splice inh: Mtb RecA intein splicing inhibition; P9WHJ3; cell-free RecA intein splicing, fluorescence; inhibition, %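 (about 9 µM by stock and volumes)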; 290,000 tested, 0.75% active; in the data active means inhibition above about 30%; inconclusive means no clear call, values can overlap the other calls;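 further: 0% = vehicle wells and 100% = reference inhibitor control wells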
Target sequence (P9WHJ3 whole entry, looked up, canonical isoform): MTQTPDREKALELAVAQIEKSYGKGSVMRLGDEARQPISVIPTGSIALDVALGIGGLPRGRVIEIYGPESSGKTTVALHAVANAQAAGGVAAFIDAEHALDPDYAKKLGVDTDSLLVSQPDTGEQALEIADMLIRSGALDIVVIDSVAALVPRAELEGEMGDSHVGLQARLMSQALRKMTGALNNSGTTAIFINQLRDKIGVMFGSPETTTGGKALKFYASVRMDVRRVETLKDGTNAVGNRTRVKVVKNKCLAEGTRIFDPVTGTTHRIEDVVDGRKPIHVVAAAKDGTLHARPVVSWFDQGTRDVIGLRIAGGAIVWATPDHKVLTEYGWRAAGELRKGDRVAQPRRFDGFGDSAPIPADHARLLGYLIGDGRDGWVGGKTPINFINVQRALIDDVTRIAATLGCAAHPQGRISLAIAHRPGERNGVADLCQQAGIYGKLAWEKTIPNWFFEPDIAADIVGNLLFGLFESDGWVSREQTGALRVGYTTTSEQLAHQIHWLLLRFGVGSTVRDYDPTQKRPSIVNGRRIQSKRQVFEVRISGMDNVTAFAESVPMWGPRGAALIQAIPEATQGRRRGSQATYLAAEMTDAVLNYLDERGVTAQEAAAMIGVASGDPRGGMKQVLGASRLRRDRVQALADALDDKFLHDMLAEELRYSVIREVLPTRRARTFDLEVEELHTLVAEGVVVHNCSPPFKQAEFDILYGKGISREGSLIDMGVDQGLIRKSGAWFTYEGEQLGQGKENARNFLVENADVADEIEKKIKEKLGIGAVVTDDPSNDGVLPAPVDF
Mtb growth: M. tuberculosis H37Rv growth inhibitors, H37Rv strain (AID 1626); M. tuberculosis H37Rv growth inhibition; higher % means a stronger effect; inhibition, % at 10 µM, or IC50 in µM where a hit was titrated; 220,000 tested, 0.95% active;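 active means confirmed in a dose series; inconclusive means inhibition above 80% but not taken into the dose series; inactive means below 80% or under 30% at every dose of the series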;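 further: bacteria incubated seven days before Alamar blue readout; 0% = bacteria only wells and 100% = bacteria with antibiotic wells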
Mtb betalactam: beta-lactam sensitization of Mtb H37Rv; 330,000 tested, 0.27% active; inhibition, % at 25 µM; M. tuberculosis H37Rv growth with meropenem, percent inhibition; hits of this screen are not shown here;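 active means about 74% or more and at least 40 points above the plate without the antibiotic, then above 30% in a dose series; inconclusive means first-round hits that could not be retested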;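 further: growth measured after seven days incubation then overnight dye step; 0% = bacteria only wells and 100% = bacteria with antibiotic; twin plates without the antibiotic show which effects depend on it; some results filed as inactive read as strong as hits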
Arbovirus inh: arbovirus infection inhibition; arbovirus infection cell-based antiviral screen; inhibition, % at 10 µM; 200,000 tested, 0.37% active; AID 1251;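 active means inhibition from about 30%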;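 further: bluetongue infection of BSR cells; cell survival read as ATP light after 72 h; 0% = infected wells without compound and 100% = uninfected wells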
Arbovirus inh repeat: also measured in Arbovirus inh; calls as there; inhibition, %; measured here: 10K subset replicate screen; many hits read low in the repeat;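 first of two repeat runs on a subset; 0% = infected and 100% = uninfected wells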
* = called active by the depositor; ? = inconclusive; / = no result given. Only part of the results is shown; count on the stated rates, not on these rows.

SMILES	YopH PTP inh	RecA splice inh	Mtb growth	Mtb betalactam	Arbovirus inh	others
Cc1ccc(C(C)C)c(OCCN)c1	-45	-0.5	-6%	1	11
Cn1c(O)c(C2=NNC(c3ccc(Cl)cc3)C2)c(=O)n(C)c1=O (stereo not given)	/	0.7	?	83	/
CC(OC(=O)C1=COCCO1)C(=O)Nc1ccc(Cl)cn1 (stereo not given)	/	-2.6	/	43	/
N#C/C(=N\Nc1ccccc1Cl)C(=O)c1ccccc1	-28	0.8	/	-10	9
O=C(NC1CC1)C1CCN(C2CCN(C(=O)Cc3ccc4c(c3)OCO4)CC2)CC1	/	0.7	-10%	-5	-1
CC1=NN(c2ccccc2)C(=O)/C1=C\N(O)c1ccccc1	/	28	/	3	/
CCC(C)(C)NC(=O)CN(Cc1ccccc1Cl)C(=O)CCC(=O)Nc1cc(C)ccn1	/	-5.3	-2%	-5	2
Cc1cc(NC(=O)c2noc3c2CCc2ccccc2-3)n(-c2ccccc2)n1	-15	3.2	2%	3	0	Arbovirus inh repeat=-4
CN(C(=O)Cn1nnc(-c2cccnc2)n1)C1CCCCC1	/	0.4	/	0	/
Cc1ccccc1CSCc1ccc(C(=O)NCCCN2CCOCC2)o1	/	1.7	0%	0	-6
C=C1CCC[C@]2(C)C[C@H]3OC(=O)C(CNC(CC)CO)[C@H]3CC12 (stereo not given in full)	/	-0.2	/	3	/
Cc1ccc2c(c1)N(CC(=O)N1CCCCC1)C(=O)C(C)O2 (stereo not given)	/	0.5	/	4	/
COc1ccc(S(=O)(=O)N(C)C)cc1NC(=O)COC(=O)CC1CCCC1	/	-1.0	7%	2	4
Cc1ccc2[nH]c(=O)c3cc(C(=O)N(C)Cc4ccco4)sc3c2c1	-53	0.8	8%	-3	-8	Arbovirus inh repeat=-5
CSc1ccccc1NC(=O)C1CC(c2ccccc2Cl)=NO1 (stereo not given)	/	0.5	/	-1	/
C/C(=N/OC(=O)c1c(F)cccc1F)c1nccs1	-26	0.3	5%	70	4
COc1ccc(OCc2cc(C(=O)NCC3(C)COC3)no2)c(Cl)c1	/	0.5	/	?	/
O=C(CS(=O)(=O)c1ccccc1Cl)N1CCOCC1	/	2.1	/	-3	/
Cc1ccc(C2CC(C(F)F)n3ncc(C(=O)Nc4c(C)nn(Cc5c(F)cccc5Cl)c4C)c3N2)cc1 (stereo not given)	2	1.9	0%	-3	-9
Cc1ccc(NC(=O)COc2ccc(/C=N/NC(=O)CSCc3ccccc3)cc2)cc1	-63	7.8	52%	55	-15
CC(OC(=O)c1cccs1)C(=O)NCc1ccccc1 (stereo not given)	-9	/	-5%	6	2
COc1ccc(S(=O)(=O)NCC2CCCN(C(=O)c3cccs3)C2)cc1 (stereo not given)	/	1.1	-4%	-3	-4
CN(Cc1ccccc1F)C(=O)CCCNC(=O)c1ccc(Cl)cc1	/	1.7	/	6	/
C/C(=N\NC(=O)c1ccccc1F)c1ccc2c(c1)Nc1ccccc1S2	-20	-0.6	7%	11	-10
COc1ccc(NC(=O)c2ccc(OC)cc2)cc1	-43	-4.3	-1%	-2	2

Overlap with the part before: two entries, then new ones.
SMILES	YopH PTP inh	RecA splice inh	Mtb growth	Mtb betalactam	Arbovirus inh	others
C/C(=N\NC(=O)c1ccccc1F)c1ccc2c(c1)Nc1ccccc1S2	-20	-0.6	7%	11	-10
COc1ccc(NC(=O)c2ccc(OC)cc2)cc1	-43	-4.3	-1%	-2	2
O=C(CCCc1ccccc1)NCc1ccccn1	/	0.5	/	1	/
CS(=O)(=O)N(CC(=O)NCc1ccccc1)Cc1ccc(Cl)cc1	-3	-1.1	-2%	-2	4
COc1ccc(C(=O)Nc2cccnc2)cc1OC	-35	/	3%	-12	-5
CC(C)(Oc1ccc(Cl)cc1)C(=O)N(Cc1ccccc1)c1ccccn1	-1	15	6%	-4	-4
COc1ccc(C(=O)NNC(=O)CSc2nnc(C(C)C)n2C)cc1	/	0.2	/	5	/
CC(C)Cc1nc2sc3c(c2c(=O)n1N)CC(C)(C)OC3	/	-2.8	3%	-4	/
CCN(CC)CCNC(=O)c1ccc(NC(=O)c2ccc3c(c2)CCC3)cc1	/	0.4	/	-11	/
O=C(NCc1ccccc1)C(=O)NCC(c1ccco1)N1CCOCC1 (stereo not given)	-11	0.2	0%	-7	-2
Cc1cc(C(=O)NCc2ccc3c(c2)OCO3)c(C)o1	/	1.8	11%	6	/
O=C(O)c1cn[nH]c1-n1cnnn1	-19	2.3	-4%	-16	-3
COCCN1C(=O)CC(NNC(=O)c2ccc(S(=O)(=O)N3CCCC3)cc2)C1=O (stereo not given)	/	-2.7	-6%	-4	8
CN(CC1CCOCC1)C(=O)CC1C(=O)NCCN1C/C=C/c1ccccc1 (stereo not given)	/	-0.4	2%	3	4
Cc1ccc(-c2nc(SC(C)C(=O)N3CCCC3)n[nH]2)cc1 (stereo not given)	/	-2.0	/	-9	/
Cc1ccc(C(=O)NCc2nnc(SCC(=O)Nc3sc4c(c3C#N)CCCC4)n2C)cc1	-3	0.8	-12%	-11	-7
CCC(CC)C(=O)OCC(=O)Nc1cccc([N+](=O)[O-])c1	/	/	1%	-3	7
Cc1ccc(OCC(=O)NCCO)cc1C	-2	-2.4	-13%	1	8
COc1ccc(C(C(=O)NCC2CCCO2)N(C(=O)CNC(=O)c2ccco2)c2ccccc2)cc1OC (stereo not given)	/	-2.1	/	-3	/
O=C(Oc1cccc(-n2cnnn2)c1)c1ccco1	-11	43*	-7%	-10	-4
CCOC(=O)c1cnc(SSc2ncc(C(=O)OCC)c(N)n2)nc1N	/	-0.9	/	4	/
C=CCN1C(=O)C2(OCCCO2)c2cccc(C)c21	/	4.6	/	-9	/
Cc1ccc(Cl)cc1N(CC(=O)NCc1ccccc1)S(C)(=O)=O	/	3.2	/	-3	/
COc1ccc(S(=O)(=O)N2CCC(C(=O)N3CCc4ccccc4C3)CC2)cc1OC	-10	0.1	-23%	-4	6	Arbovirus inh repeat=3
CCCCN=C1NC(=O)C(CC(=O)Nc2ccc(Cl)cc2)S1 (stereo not given)	-4	-5.3	-11%	-2	-2
COc1ccc([C@@H]2COc3c(ccc4c3C=CC(C)(C)O4)C2)c(OC)c1	/	2.7	-1%	-3	/
CC(C)CN1C(=O)c2ccc(NC(=O)C3CC3)cc2C1=O	/	0.6	/	8	/

(continued)
SMILES	YopH PTP inh	RecA splice inh	Mtb growth	Mtb betalactam	Arbovirus inh	others
CCN1CCN(CC(=O)c2c(C)n(C)c3ccc(OC)cc23)CC1	-28	/	0%	-2	9
O=C(CN(Cc1ccco1)C(=O)Cn1nnc(-c2cccs2)n1)NCC1CCCO1 (stereo not given)	/	0.4	-6%	-3	5
O=C(NCC1CCCO1)c1ccc2ccccc2n1 (stereo not given)	-14	-7.9	-2%	-4	5
O=C(O)CNC(=O)c1ccc2c(c1)OCCO2	12	-1.7	-3%	8	9
CCOCCCN(C(=O)c1snc(C(N)=O)c1N)C(C(=O)NC1CCCC1)c1ccc(O)cc1 (stereo not given)	/	-6.0	/	-3	/
Cc1ccccc1OCC(=O)NNC(=O)c1ccc(-c2ccccc2)cc1	-39	-1.6	-4%	0	-5
Cc1ccccc1-n1c(=O)cc(N2CCc3ccccc32)[nH]c1=O	-9	0.7	10%	1	-3
O=C(CNS(=O)(=O)c1ccc(Cl)cc1)NNC(=O)c1cccnc1	/	-2.7	-2%	7	1
COc1ccc(S(=O)(=O)NCc2ccncc2)cc1NC(=O)c1ccc(Cl)cc1	/	1.5	/	-1	/
CCOc1ccc(NC(=O)C2CCCN(c3nc(C)cc(C)n3)C2)cc1 (stereo not given)	/	4.4	/	4	/
Cc1nnc(SCC(=O)N(CC(C)C)c2c(N)n(Cc3ccccc3)c(=O)[nH]c2=O)n1N	/	-2.0	/	-4	/
Cc1ccc(/C=N/NC(=O)c2cc(-c3cccnc3)nc3ccccc23)cc1	/	-1.3	-1%	2	-11
COc1cc(NC(=O)c2cc(-c3cccnc3)nc3ccc(C)cc23)c(OC)cc1Cl	-20	-1.3	/	-1	7
CCc1ccccc1Nc1ccc(C(=O)O)cc1N	-30	4.5	3%	-6	-4
CCOC(=O)NC1(C(F)(F)F)NC(=O)N(c2ccc(F)cc2)C1=O (stereo not given)	-8	-0.5	7%	-9	4
Cc1ccc(-c2nc(=O)[nH]c3ccccc23)cc1	/	-2.6	/	-2	/
Cc1ccccc1OCC(=O)N1CCCCCCC1	/	1.3	/	2	/
COc1ccc(C2/C=C\CN(Cc3ccc(N(C)C)cc3)CC(=O)N2Cc2ccc(F)cc2)cc1 (stereo not given)	/	3.3	-5%	-3	/
CCOC(=O)/C=C/C(=O)Nc1cccc([N+](=O)[O-])c1	-20	0.5	-6%	6	5
O=S(=O)(c1ccc(N2CCCC2c2nc3ccccc3s2)nc1)N1CCOCC1 (stereo not given)	-30	-2.7	-9%	-11	-4
O=C(CC1C(=O)NCCN1Cc1cccc(Oc2ccccc2)c1)NCCCn1cccn1 (stereo not given)	/	-1.8	-5%	-3	-5
O=C(N/N=C/c1ccc(-c2ccc(S(=O)(=O)Nc3ncccn3)cc2)o1)c1cc2ccccc2cc1O	-7	-47	/	2	-15
CCCCCCOc1ccc(CN2CCN(C)CC2)cc1	-2	-5.7	-8%	?	-2	Arbovirus inh repeat=7
CCOc1ccc(-n2c(-c3cccs3)nc3ccccc3c2=O)cc1	/	2.1	-1%	2	-2
CC(C)(C)c1ccc(/C=N/NC(=O)C[n+]2ccccc2)cc1	/	-4.1	/	-6	/

A stretch of the results above, for reference:
SMILES	YopH PTP inh	RecA splice inh	Mtb growth	Mtb betalactam	Arbovirus inh	others
O=S(=O)(c1ccc(N2CCCC2c2nc3ccccc3s2)nc1)N1CCOCC1 (stereo not given)	-30	-2.7	-9%	-11	-4
O=C(CC1C(=O)NCCN1Cc1cccc(Oc2ccccc2)c1)NCCCn1cccn1 (stereo not given)	/	-1.8	-5%	-3	-5
O=C(N/N=C/c1ccc(-c2ccc(S(=O)(=O)Nc3ncccn3)cc2)o1)c1cc2ccccc2cc1O	-7	-47	/	2	-15
CCCCCCOc1ccc(CN2CCN(C)CC2)cc1	-2	-5.7	-8%	?	-2	Arbovirus inh repeat=7
CCOc1ccc(-n2c(-c3cccs3)nc3ccccc3c2=O)cc1	/	2.1	-1%	2	-2
CC(C)(C)c1ccc(/C=N/NC(=O)C[n+]2ccccc2)cc1	/	-4.1	/	-6	/

(next part)
SMILES	YopH PTP inh	RecA splice inh	Mtb growth	Mtb betalactam	Arbovirus inh	others
CC1(C)CC(=O)C(CC2=C(O)CC(C)(C)CC2=O)C(=O)C1	-13	-1.7	-9%	4	-5
COc1ccc2[nH]c(C(=O)Nc3ncc(C)cc3Br)cc2c1	/	2.9	1%	-8	/
CN(C(=O)Nc1ccc(Cl)c(Cl)c1)c1ccccc1C(=O)O	-33	-1.4	?	7	12
COc1ccc(C)cc1S(=O)(=O)N(CC(=O)NCc1ccco1)c1ccc(C)cc1	/	6.2	/	0	/
CCN(CC)C(=O)COc1ccc(/C=C(\C#N)S(=O)(=O)c2ccccc2)cc1OC	/	/	6%	6	-2
CC1=NN(c2ccccc2)C(=O)/C1=C/c1cc2cc(C)ccc2nc1N1CCCCC1	-21	4.3	-9%	0	29
CCc1nnc(NC(=O)CSc2nnc(C(C)NC(=O)c3ccccc3F)n2C)s1 (stereo not given)	/	1.7	/	1	/
Cc1ccc(C(=O)C(O)C(c2ccc(C)cc2)N2CCCCC2)cc1 (stereo not given)	/	0.5	2%	4	12
CC(=O)c1ccc(NC(=O)C2CC2c2ccccc2)cc1 (stereo not given)	/	0.5	/	-2	/
O=C(Nc1ccc(S(=O)(=O)N2CCCC2)cc1)c1ccc(Cl)nc1	/	-0.1	/	3	/
CC1CCN(C(=O)C2CCN(S(=O)(=O)c3cccc4nonc34)CC2)CC1	-22	-0.8	2%	9	9
CCOC(=O)C1=C(C)NC(=O)C(C#N)C1c1ccco1 (stereo not given)	-29	0.8	-6%	-11	3
C/C(=N\NC(=O)Cc1c(C)[nH][nH]c1=O)c1ccc2ccccc2c1	1	6.6	-2%	5	-2
CCOc1ccc(NC(=O)C2CC(=O)N3CCCN=C3S2)cc1 (stereo not given)	-19	-0.9	-8%	33	5

3 records picked at random from the list so far, as already listed:
SMILES	YopH PTP inh	RecA splice inh	Mtb growth	Mtb betalactam	Arbovirus inh	others
CC1(C)CC(=O)C(CC2=C(O)CC(C)(C)CC2=O)C(=O)C1	-13	-1.7	-9%	4	-5
CCc1nnc(NC(=O)CSc2nnc(C(C)NC(=O)c3ccccc3F)n2C)s1 (stereo not given)	/	1.7	/	1	/
CC1=NN(c2ccccc2)C(=O)/C1=C/c1cc2cc(C)ccc2nc1N1CCCCC1	-21	4.3	-9%	0	29
